Insulin prom inh – TRM-6 insulin promoter activity inhibition. hit rate 0.9% among 130,000. inhibition, % at 2 µM. AID 1273. TRM-6 cells (human fetal islet line), insulin promoter-eGFP reporter, imaging; reporter expression induced with tamoxifen;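 active means inhibition above the mean plus 3 SD, with well images judged a real hit on visual review, cut at about 60% in these data, passing the limit was not always enough; inconclusive means inhibition over the cutoff but images rejected on review; inactive means inhibition not above the cutoff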
RGS16-Gao – regulators of human RGS16-Galphao interaction | O15492+P09471 | hit rate 0.38% among 220,000 | binding response (% of control), % at 10 µM | bead-based flow cytometry RGS16-Galphao binding, fluorescence; actives lie on both sides;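 active means below 25% or above 175%, edge rows of some plates excepted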;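 further: Galphao activated by GDP with aluminum fluoride before binding; 100% = wells without compound and 0% = beads without RGS; some results beyond the cut were filed as inactive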
PKD1 inh – blocks activity of human protein kinase D1. PKD1 kinase fluorescence polarization assay. inhibition, %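 (about 10 µM by stock and volumes)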. hit rate 0.056% among 200,000;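 active means inhibition of 50% or more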;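 further: controls were vehicle for no effect and a reference inhibitor for full effect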
Target sequence (Q15139 whole entry, looked up): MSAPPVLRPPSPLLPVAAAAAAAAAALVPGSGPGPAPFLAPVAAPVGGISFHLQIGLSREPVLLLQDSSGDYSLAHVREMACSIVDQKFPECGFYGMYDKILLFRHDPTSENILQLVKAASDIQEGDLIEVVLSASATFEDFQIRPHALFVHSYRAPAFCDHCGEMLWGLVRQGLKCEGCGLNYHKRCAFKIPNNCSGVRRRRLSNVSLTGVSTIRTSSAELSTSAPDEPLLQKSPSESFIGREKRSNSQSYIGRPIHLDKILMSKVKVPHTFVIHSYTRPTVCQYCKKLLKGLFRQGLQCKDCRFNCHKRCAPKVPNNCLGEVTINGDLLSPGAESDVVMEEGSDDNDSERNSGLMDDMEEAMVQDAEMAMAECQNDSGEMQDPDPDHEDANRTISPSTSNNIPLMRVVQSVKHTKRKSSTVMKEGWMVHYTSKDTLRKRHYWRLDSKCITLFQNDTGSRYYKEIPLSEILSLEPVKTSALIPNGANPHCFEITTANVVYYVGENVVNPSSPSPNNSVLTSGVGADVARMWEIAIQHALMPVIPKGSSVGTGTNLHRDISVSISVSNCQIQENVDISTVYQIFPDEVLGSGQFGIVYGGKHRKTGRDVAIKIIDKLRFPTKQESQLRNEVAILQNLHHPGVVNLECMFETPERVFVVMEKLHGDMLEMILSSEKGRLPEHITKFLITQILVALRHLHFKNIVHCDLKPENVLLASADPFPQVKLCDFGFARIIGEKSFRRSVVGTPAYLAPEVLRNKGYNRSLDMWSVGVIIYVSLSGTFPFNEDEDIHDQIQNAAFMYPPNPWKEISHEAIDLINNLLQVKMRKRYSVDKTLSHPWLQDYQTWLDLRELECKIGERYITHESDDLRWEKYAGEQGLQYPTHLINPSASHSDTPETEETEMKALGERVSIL
HSV replic up – increases HSV replication in cells; HSV replication augmentation in cells, fold increase; maximum fold increase; hit rate 0.005% among 220,000;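 active means peak rise of 1.5-fold or more in the series; inconclusive means self-fluorescent or not available for retest; tested in PC3 cells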;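 further: first round at 10 µM; read as green reporter fluorescence; hits show the peak of a series up to 25 µM; 1 = signal of infected wells without compound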
GALR2 ag – activates the human galanin receptor 2; O43603; GALR2-expressing cells, agonist activation read-out; activation, %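 (tested at 5 µM)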; hit rate 0.48% among 140,000;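 active means above mean plus 3 SD of all compounds, about 5% in these data, not always enough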;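 further: 0% = vehicle buffer wells and 100% = reference agonist at full effect; tested in CHO reporter cells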
Insulin prom inh cell count – recorded beside Insulin prom inh, whose call it bears; normalized cell count, %; measured here: cell count, toxicity; reference of the scale not given here;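 cells exposed to compound for 48 h; stained nuclei by imaging scaled within each plate; lower means fewer cells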
HSV replic up primary fold – recorded beside HSV replic up, whose call it bears; fold increase; compound at 10 µM; measured here: primary screen fold increase 10 uM; tested in PC3 cells;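 GFP signal in the first replicate; 1 = infected wells without compound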
Numbers without * were called inactive; i = inactive; ? = inconclusive; . = no result given.

SMILES	Insulin prom inh	Insulin prom inh cell count	RGS16-Gao	PKD1 inh	HSV replic up	HSV replic up primary fold	GALR2 ag
CC(=O)N/C(=C\c1ccccc1Cl)C(=O)O	45	99	109	3	i	0.97	-0.1
Fc1ccc(C(CCNCc2cccs2)c2ccco2)cc1 (stereo unspecified)	.	.	100	.	i	1	.
Cn1c(=O)c2c(SCC(=O)Nc3ccc4c(c3)OCCO4)nc(CC(C)(C)C)nc2n(C)c1=O	.	.	101	-10	i	0.96	-0.7
O=C1c2[nH]nc(-c3ccccc3O)c2C(c2cccc(O)c2)N1Cc1ccco1 (stereo unspecified)	-29	152	93	-2	i	1	0.4
COc1cccc2cc(-c3nnc(SCC(=O)NCc4ccccc4)n3C)oc12	-31	156	104	6	i	0.84	-1.1
COc1cc(C(=S)NC2CCCCC2)ccc1O	38	80	98	-8	i	1.1	-1.9
Cc1onc(-c2c(Cl)cccc2Cl)c1C(=O)NCCN1CCOCC1	67	119	105	1	i	1	-1.4
Cc1nc2sc(C)c(C)c2c(=O)o1	20	122	99	-1	i	1.1	-2.5
CC(=O)c1cc2c(cc1NC(=O)CCC1CCCC1)OCO2	-3	109	102	-2	i	0.97	-0.5
CC1(C)Cc2c(C#N)c(N3CCOCC3)nc(Cc3ccccc3)c2CO1	.	.	104	-14	i	0.97	-1.0
O=C(Cn1cnc2cc([N+](=O)[O-])ccc2c1=O)N(Cc1ccccc1)C1CCS(=O)(=O)C1 (stereo unspecified)	.	.	108	-1	i	0.97	.
Cc1nn(-c2cccc(C(F)(F)F)c2)c(=O)c2noc(C)c12	.	.	101	.	i	1	.
COc1cccc(NC(=O)c2ccccc2-c2nc(-c3cccc(C)c3)no2)c1	-57	84	103	-1	i	0.72	-0.7
Cc1noc(/C=C/N(C)C)c1S(=O)(=O)N1CCCC(C(=O)NCc2ccc(F)cc2)C1 (stereo unspecified)	.	.	90	1	.	.	-5.1
O=C(NNS(=O)(=O)c1ccc(F)cc1)C1CC(c2cccnc2)=NO1 (stereo unspecified)	.	.	100	1	i	0.95	.
COc1ccc(CCN(C)CCC(=O)Nc2ccc(C)cc2)cc1OC	0	93	109	2	i	1	-0.2
COCCCNC(=S)N1CCCN(c2nc3c(C)c(C)ccc3cc2C#N)CC1	0	126	108	-2	i	0.89	.
Cc1cc(NC(=O)CN2CCCCC2C)nc2c1c(=O)oc1ccccc12 (stereo unspecified)	.	.	99	-11	.	.	.
Cc1ccc(NC(=O)C(C)N2CCOCC2)c(C(=O)c2ccccc2)c1 (stereo unspecified)	-25	34	115	6	i	1	-0.4
O=c1cc(CSc2ccc([N+](=O)[O-])cc2)nc2sccn12	9	158	135	-7	i	0.92	.
CN(CC1CCCO1)S(=O)(=O)c1ccc(C(=O)NCc2ccccc2)cc1 (stereo unspecified)	23	52	96	0	i	0.97	.
O=C(NC1CCCCC1)/C(=N\O)c1ccccn1	-55	91	101	-2	i	0.94	-1.4
CCOC(=O)c1c(C)nc2sc3c(=O)n(-c4ccc(C)cc4)cnc3c2c1-c1ccc(OC)cc1	.	.	93	15	i	1	-0.3
CCCCSc1nc(C)[nH]c1[N+](=O)[O-]	75*	136*	107	0	i	0.81	-2.7
CCCCn1c(NC(C)=O)c(C#N)c2nc3ccccc3nc21	.	.	92	-7	i	1.1	4.3

Next compounds:
SMILES	Insulin prom inh	Insulin prom inh cell count	RGS16-Gao	PKD1 inh	HSV replic up	HSV replic up primary fold	GALR2 ag
CC1CCCCN1CCNS(=O)(=O)c1ccc2c(c1)oc(=O)n2C (stereo unspecified)	-14	193	99	5	i	0.83	-0.8
CC(C)CCNC(=S)Nc1ccc([N+](=O)[O-])cc1	-43	112	102	4	i	0.87	-0.6
Cc1nnsc1C(=O)NNc1ccc(C(C)C)cc1	.	.	102	.	i	0.97	.
N/C(=N\OS(=O)(=O)c1ccc(Cl)cc1)c1ccccn1	.	.	97	10	i	0.98	.
C#CC[N+]1(CC#Cc2ccccc2)CCOCC1	-21	98	101	-4	i	1	-0.2
CCc1c(-c2ccccc2)nc2nc(C)c(C)nn12	.	.	103	-10	i	0.92	-0.2
FC(F)(F)c1cccc(Cn2c3[n+](c4ccc(C(F)(F)F)cc42)CCCCC3)c1	-21	78	108	3	.	.	.
Cc1[nH]c2ccccc2c1CCN(Cc1cccs1)C(=S)Nc1ccccc1	24	113	95	-4	i	0.96	.
Cc1cccc(Cc2cnc(NC(=O)CN3C(=O)/C(=C/c4ccccc4)SC3=S)s2)c1	42	118	99	-4	.	.	-4.7
CCC(C)C(NC(=O)C1CCC(C)CC1)C(=O)NC(CCSC)C(=O)OC (stereo unspecified)	-17	79	95	-2	i	1.1	-3.0
Cc1cc(C)nc(SCCn2c(N3CC(C)OC(C)C3)nc3c2c(=O)n(C)c(=O)n3C)n1 (stereo unspecified)	.	.	97	-4	i	1.2	.
O=C(N/N=C/c1ccccc1Cl)c1ccc(F)cc1	.	.	103	6	i	1	-1.9
CC(=O)c1ccc(OCCCC(=O)OCc2nnc(-c3ccc(Cl)cc3)o2)cc1	5	96	103	-4	i	0.76	-1.4
Cc1sc2c(c1C)CN(C1CC(C)(C)NC(C)(C)C1)CN2C(=O)c1ccco1	3	107	110	-1	.	.	-1.1
C=CC[n+]1c(C)csc1Nc1ccc(C)cc1	2	66	102	0	i	0.96	.
CCNC(=S)N/N=C/c1cccc(OCc2c(F)cccc2Cl)c1	.	.	110	3	i	0.95	0.7
CCCCP(=O)(CCCC)Cc1ccccc1O	i	59	104	-6	i	0.8	-2.5
Cc1ccc(C)c(NC(=S)Nc2cccc3cnccc23)c1	-24	115	107	-9	i	0.63	.
Cc1sc2ncnc(SCc3ccc(C(=O)O)cc3)c2c1C	.	.	91	1	i	0.99	.
CC1CN=C(N(C(=O)Nc2ccccc2)c2ccc(F)cc2)S1 (stereo unspecified)	.	.	96	13	i	0.78	-1.5
COCC(=O)OC/C(O)=C(\C#N)c1nc2ccccc2[nH]1	.	.	105	.	i	1.1	.
Cc1cc(OCC(=O)Nc2ccc(Br)cc2)cc2c1C(=O)CC(C)(C)O2	.	.	100	.	i	0.94	.
Cc1ccc(NC(=O)c2cc([N+](=O)[O-])ccc2Cl)c(O)c1	38	109	103	1	i	0.79	.
OCCN(Cc1ccccc1)Cc1cccc(C(F)(F)F)c1	-82	82	.	-7	i	0.9	-1.3
COc1ccccc1N1CCN(C(=O)CSc2nc(C)c(C)c(=O)[nH]2)CC1	-49	104	105	1	i	0.85	.

A draw from above in order of formula weight, low to high:
SMILES	Insulin prom inh	Insulin prom inh cell count	RGS16-Gao	PKD1 inh	HSV replic up	HSV replic up primary fold	GALR2 ag
OCCN(Cc1ccccc1)Cc1cccc(C(F)(F)F)c1	-82	82	.	-7	i	0.9	-1.3
CCC(C)C(NC(=O)C1CCC(C)CC1)C(=O)NC(CCSC)C(=O)OC (stereo unspecified)	-17	79	95	-2	i	1.1	-3.0
FC(F)(F)c1cccc(Cn2c3[n+](c4ccc(C(F)(F)F)cc42)CCCCC3)c1	-21	78	108	3	.	.	.

The list continues.
SMILES	Insulin prom inh	Insulin prom inh cell count	RGS16-Gao	PKD1 inh	HSV replic up	HSV replic up primary fold	GALR2 ag
Cc1ccc(C(=O)C2CCN(CC(=O)NC3CCCCC3)CC2)cc1	.	.	111	-5	i	0.85	-1.1
CCC(Sc1ccc2nnc(-c3ccc(F)cc3)n2n1)C(=O)OC (stereo unspecified)	-63	110	98	-4	i	0.94	-0.8
C(=N\n1cnnc1)/c1cn(-c2cccs2)nc1-c1ccccc1	0	74	87	-2	i	0.85	-1.4
Cc1[nH]n(-c2ccccc2)c(=O)c1C(C[N+](=O)[O-])c1ccc(Br)cc1 (stereo unspecified)	27	109	98	5	i	0.92	-1.7
Cn1cc(-c2ccno2)c(C(=O)O)n1	.	.	99	-3	i	0.83	.
CN(CC(=O)N1CCCCC1)S(=O)(=O)c1ccc(Cl)cc1	16	88	105	-2	i	0.99	.
COc1ccc(Cl)cc1NC(=O)c1oc(C)nc1C	-56	115	98	-11	i	1.2	-2.0
Cn1cc(Cl)c(C(=O)NNC(=S)NCc2ccco2)n1	.	.	100	-1	i	1	.
CCOC(=O)C1CCCN(CC(O)COc2ccccc2C(C)=O)C1 (stereo unspecified)	-21	94	103	-13	i	0.82	-0.6
O=C(NCc1ccccc1)C(c1ccccc1)N(Cc1ccc2c(c1)OCO2)C(=O)Cc1cccs1 (stereo unspecified)	-95	149	115	-8	i	1	-2.3
Cc1ccc(S(=O)(=O)N(C)C)cc1NC(=S)NC12CC3CC(CC(C3)C1)C2	.	.	177	-5	i	1	1.2
COc1ccc(C(CC(=O)N2CCOCC2)c2c(OC)cc(OC)c3c(-c4ccccc4)cc(=O)oc23)cc1 (stereo unspecified)	.	.	99	.	i	0.79	.
CCOC(=O)N1CCN(C(=O)CSc2nnc(COc3ccccc3)o2)CC1	.	.	101	-8	i	0.9	-0.9
C[C@H](NC(=O)Nc1cccc(C(F)(F)F)c1)C(=O)O	-5	87	94	-7	i	1	-0.8
Cc1ccc2c(Cl)c(C)c(N3CCCCC3)nc2n1	83*	121*	101	8	i	0.79	1.3
C/C(=N\NC(=O)c1ccc2c(c1)OCCO2)c1ccccc1	.	.	95	.	i	0.88	.
O=C(CCNC(=O)OCc1ccccc1)NC1CCCCC1	20	67	134	4	i	0.97	-2.0
Cc1ccccc1OC(=O)CCC(=O)OCCCC(F)(F)C(F)(F)F	-8	86	97	-11	i	1	-3.0
Cc1cc(/C=C2/NC(=O)NC2=O)c(C)n1C	-50	123	98	-4	i	1.1	.
Cn1ccc(/C=N/N=C2/NC(=O)CS2)n1	.	.	98	.	i	0.95	.
Cc1ccc(C)c(Cc2c(C)nc3c(C(=O)NCc4ccc5c(c4)OCO5)cnn3c2C)c1	6	80	84	1	.	.	1.0
C=CCNC(=O)/C(C#N)=C\c1cc(Cl)c(O)c(OCC)c1	.	.	115	-9	?	.	-1.9
O=C(c1ccco1)N1CCN(C(=O)c2ccccc2[N+](=O)[O-])CC1	-38	117	97	-7	i	0.91	.
CCN(c1ccccc1)S(=O)(=O)c1cc(C(=O)Nc2ccc(Br)cc2)ccc1F	14	129	104	-1	i	0.87	-2.2
CCCC(C)C(=O)Nc1cc([N+](=O)[O-])ccc1F (stereo unspecified)	17	148	105	-4	i	0.87	1.4

Next part:
SMILES	Insulin prom inh	Insulin prom inh cell count	RGS16-Gao	PKD1 inh	HSV replic up	HSV replic up primary fold	GALR2 ag
COc1ccc(Cl)cc1NC(=O)CN1C(=O)CSC1=O	12	126	93	-11	i	1.1	-0.3
O=C(NCc1nnc(SCc2ccc(F)cc2)n1-c1ccccc1)C12CC3CC(CC(C3)C1)C2	.	.	102	1	i	0.91	0.7
O=C(Nc1ccccc1Cl)N1CCN(c2ccc3nnc(-c4ccccc4)n3n2)CC1	.	.	98	-8	i	0.73	-0.4
Cc1ccc(C)c(NC(=O)CSc2nnc(CCCCCNC(=O)OC(C)(C)C)o2)c1	.	.	89	-2	i	0.95	-1.5
CN(Cc1ccccc1)C(=O)CN(c1ccc(F)cc1)S(=O)(=O)c1ccc2c(c1)OCCO2	54	88	100	4	i	0.96	-2.8
CCCC(=O)NCCCc1nc2ccccc2n1C(C)C	.	.	99	-15	i	0.98	-2.2
Cc1ccc(CN2C(=O)CCC2C(=O)N2CCN(c3ccc(F)cc3)CC2)cc1 (stereo unspecified)	15	114	68	-3	i	1	-1.4
Cc1c2cnn(CC(=O)O)c(=O)c2c(C)n1Cc1ccccc1	.	.	102	1	i	0.73	-2.0
C=C(C)CC(NCCc1ccccc1)c1ccco1 (stereo unspecified)	i	93	135	-5	i	0.93	.
O=P(c1ccccc1)(c1ccccc1)C1CCCO1 (stereo unspecified)	.	.	103	-10	i	0.94	-1.7
COc1cccc(-c2csc(N3CCN(C(=S)Nc4ccccc4)CC3)n2)c1	-7	92	102	-7	i	0.91	-4.2
Cc1ccc(-c2cc(C(=O)N3CCOCC3)c3ccccc3n2)cc1	-24	129	96	-16	i	0.81	-1.6

Reformatted as labelled records: three of the compounds above.
Cc1ccc(C)c(NC(=O)CSc2nnc(CCCCCNC(=O)OC(C)(C)C)o2)c1
- Insulin prom inh: .
- Insulin prom inh cell count: .
- RGS16-Gao: 89
- PKD1 inh: -2
- HSV replic up: i
- HSV replic up primary fold: 0.95
- GALR2 ag: -1.5

CN(Cc1ccccc1)C(=O)CN(c1ccc(F)cc1)S(=O)(=O)c1ccc2c(c1)OCCO2
- Insulin prom inh: 54
- Insulin prom inh cell count: 88
- RGS16-Gao: 100
- PKD1 inh: 4
- HSV replic up: i
- HSV replic up primary fold: 0.96
- GALR2 ag: -2.8

CCCC(=O)NCCCc1nc2ccccc2n1C(C)C
- Insulin prom inh: .
- Insulin prom inh cell count: .
- RGS16-Gao: 99
- PKD1 inh: -15
- HSV replic up: i
- HSV replic up primary fold: 0.98
- GALR2 ag: -2.2

High-throughput results from PubChem BioAssay.
